Screening data from PubChem BioAssay.
TRPV1 potentiator – HTS Assay for Compounds that Act as Potentiators of the Vanilloid Receptor 1 | Transient receptor potential cation channel subfamily V member 1 (Homo sapiens), Q8NER1 | TRPV1-expressing cells, Fluo-8 calcium influx, capsaicin EC20 potentiation; host cell line not named in the record; control for the full effect not named in the record | potentiation, % at 8.33 µM | 0.02% of 320,000 active; active means potentiation above 80%; inconclusive means 30% to 80%; inactive means below 30%; further: 0% is about no effect
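TRPV1-expressing cells were cultured overnight at 35.5C and loaded with Fluo-8 calcium dye for 40 to 90 min at room temperature. After a 10 s baseline, compound was added and calcium influx was read kinetically for 3 min (ex 480/em 520 nm).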
ClpP mod – qHTS Assay for Activators of ClpP; purified B. subtilis ClpP, FRET peptide cleavage, 20 min; Potency, µM (series often up to 57.5 µM), for the others: at the highest dose activity change, negative = active; 1.9% of 340,000 active; active = well fitted falling curve with a large enough effect; inconclusive = small, poorly fitted or top-dose-only effect; inactive = no such curve, though single readings can be large or run the other way; further: potency means the concentration at half of the fitted maximal effect; the source files actives as falling curves though it sought activators and does not explain the sign; nearly all actives have a fitted effect of over 65% in size; many hits overshoot -100%
Target sequence (P80244 whole entry, looked up): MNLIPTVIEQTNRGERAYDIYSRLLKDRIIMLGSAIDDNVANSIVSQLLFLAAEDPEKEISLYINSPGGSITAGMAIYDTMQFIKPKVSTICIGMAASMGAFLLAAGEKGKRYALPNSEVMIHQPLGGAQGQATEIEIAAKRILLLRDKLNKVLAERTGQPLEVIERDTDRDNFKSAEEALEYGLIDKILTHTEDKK
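Buffer: 100 mM Tris/HCl pH8, 100 mM KCl, 0.05% low protease BSA, 2.5% glycerol, 0.01% Tween-20. ClpP 10 microg/mL final; 20 min RT; delta FRET normalized to ADEP and DMSO controls.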
TRPML1 inh – qHTS for Inhibitors of the Human Mucolipin Transient Receptor Potential 1 (TRPML1) | Mucolipin-1 (Homo sapiens), Q9GZU1 | 0.02% of 390,000 active | TRPML1-inducible cells, Ca2+ dye fluorescence, FDSS; stronger effect = lower value; inhibition of EC80 agonist-evoked calcium signal | activity change, negative = inhibition, % (test concentration not listed); in the data active means activity change below about -50%; inconclusive means about -30% to -50%; inactive means above about -30%;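 further: stimulus is agonist 54-4 at its EC80 concentration; on the % scale 0 is the no-effect control and ±100 the full control effect; compound concentration not given in the record; the text of the record puts the active cut at -80%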
Target sequence (Q9GZU1 whole entry, looked up): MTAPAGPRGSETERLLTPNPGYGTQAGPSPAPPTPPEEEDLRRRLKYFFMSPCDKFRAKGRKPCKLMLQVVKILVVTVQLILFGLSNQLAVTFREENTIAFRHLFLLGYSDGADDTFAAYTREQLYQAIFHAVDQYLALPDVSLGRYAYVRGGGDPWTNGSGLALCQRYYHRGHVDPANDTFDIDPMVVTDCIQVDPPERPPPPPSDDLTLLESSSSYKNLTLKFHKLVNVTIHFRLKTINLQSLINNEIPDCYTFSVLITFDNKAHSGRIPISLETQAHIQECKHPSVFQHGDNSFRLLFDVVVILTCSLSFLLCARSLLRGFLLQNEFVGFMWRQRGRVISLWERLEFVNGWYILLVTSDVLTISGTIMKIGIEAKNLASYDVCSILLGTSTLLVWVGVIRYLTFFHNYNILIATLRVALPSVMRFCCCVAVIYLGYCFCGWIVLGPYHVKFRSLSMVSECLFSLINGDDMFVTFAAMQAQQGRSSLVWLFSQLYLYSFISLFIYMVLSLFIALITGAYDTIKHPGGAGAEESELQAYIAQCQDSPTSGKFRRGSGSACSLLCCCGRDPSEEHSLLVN
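Tet-induced TRPML1-DL cells loaded with Ca8 no-wash calcium dye were read kinetically on FDSS. Compound addition was followed by EC80 agonist 54-4 (4 uM final); inhibition was read over 110 s.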
Sfp inh – qHTS Assay for Inhibitors of Bacillus subtilis Sfp phosphopantetheinyl transferase (PPTase) | 3.5% of 310,000 active | Potency, µM, for the others: max response, negative = inhibition, most hits filed as inhibitors | Biochemical Sfp PPTase activity, qHTS; active means well fitted inhibition curve with a large enough effect; inconclusive means small, poorly fitted or top-dose-only effect, or another doubt; inactive means no such curve, though single readings can be large or run the other way;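 further: the enzyme is Sfp with the accession as filed and its product quenches rhodamine fluorescence; potency means the concentration at half of the fitted maximal effect; 0% = enzyme reaction without inhibitor and -100% = no enzyme wells; top concentration of the series not given in the record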
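Compounds were incubated with enzyme (final 15 nM) for 15 min at room temperature before substrate addition started the reaction. Fluorescence at 525 nm excitation, 598 nm emission was recorded immediately and after 30 minutes.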
Starred values were filed as active, the others as inactive; u = inconclusive; x = not tested or not shown.

SMILES | TRPV1 potentiator | ClpP mod | TRPML1 inh | Sfp inh
Cc1cccc(NC(=O)CSc2nc3ccc(NC(=O)CSc4nnnn4-c4ccccc4)cc3s2)c1C | -2 | x | x | u
Cc1c(N/C(=N/S(=O)(=O)c2ccc(Cl)cc2)c2ccccc2)c(=O)n(-c2ccccc2)n1C | 6 | x | x | -10%
CC(C)c1cccc(C(C)C)c1NC(=O)c1ccc(OCC(=O)NCc2ccccc2)cc1 | -8 | x | x | 15%
O=[N+]([O-])c1cccc(-c2nc(Oc3ccc(Cl)cc3)c3ccccc3n2)c1 | -1 | x | x | -30%
O=C(CNc1ccc2c(c1)OCO2)N/N=C\c1cn(Cc2ccc(F)cc2)c2ccccc12 | 9 | x | x | -20%
CCOC(=O)c1cnc2c(C)c(Cl)ccc2c1Nc1ccc(S(=O)(=O)Nc2ncccn2)cc1 | 2 | x | x | 14%
O=C(CC1C(=O)NCCN1Cc1ccccc1F)NC1CCCCCC1 (stereo not drawn) | u | x | x | 2%
Cc1ccc(C)c(N2CCN(CCCNC(=O)CCC(=O)N3CCOc4ccc(Cl)cc43)CC2)c1 | u | x | x | -6%
O=C(N/N=C/c1ccco1)c1[nH]ncc1Br | 4 | x | x | 7%
Cc1cccc(NC(=S)NC(=O)C2CC2)c1 | -7 | x | x | 10%
CCOc1cc(/C=C2\C(=O)N(c3cccc(C(=O)O)c3)N=C2C(F)(F)F)ccc1OCC(=O)Nc1ccccc1OC | -12 | x | x | -2%
COc1ccc(C(=O)CCS(=O)(=O)c2ccc(F)cc2)cc1OC | 2 | x | x | -4%
Cn1nccc1C(=O)N1CCCC(N2CCN(c3cccc(C(F)(F)F)c3)CC2)C1 (stereo not drawn) | -1 | x | x | 19%
Cc1ccc(OCC(=O)NNC(=S)NC(=O)C2CC2)c(C)c1 | 11 | x | x | 11%
Cn1cc(/C=N\NC(=O)C2COc3ccccc3O2)c2ccccc21 (stereo not drawn) | u | x | x | -4%
O=C(Nc1ccc(Cl)cc1C(=O)N1CCOCC1)c1cccc([N+](=O)[O-])c1 | 2 | x | x | 13%
CCOC(=O)c1ccc(N2NC(=O)/C(=C/c3ccc(OC(=O)c4ccco4)c(OC)c3)C2=O)cc1 | -10 | x | x | u
CC(C)(C)n1ncc2c(=O)n(Cc3ccccc3SC(F)(F)F)cnc21 | x | x | 11 | x
Cc1cc(Cn2cnc3c(cnn3C(C)(C)C)c2=O)ccc1F | x | x | -22 | x
CN(C)/[N+]([O-])=N\Oc1cc(OC(=O)c2ccc(N)cc2)c([N+](=O)[O-])cc1[N+](=O)[O-] | x | x | 18 | x
CC(C)(C)n1ncc2c(=O)n(Cc3cc(F)c(F)cc3Cl)cnc21 | x | x | 2 | x
CC(C)(C)n1ncc2c(=O)n(Cc3ccc(SC(=O)O)cc3Cl)cnc21 | x | x | 1 | x
Cc1c(Cn2cnc3c(cnn3C(C)(C)C)c2=O)cccc1C(F)(F)F | x | x | 12 | x
CC(C)(C)n1ncc2c(=O)n(Cc3ccc(SC(F)(F)F)cc3)cnc21 | x | x | 31 | x
CC(C)(C)n1ncc2c(=O)n(Cc3ccc(F)cc3)cnc21 | x | x | 19 | x
Following part.
SMILES | TRPV1 potentiator | ClpP mod | TRPML1 inh | Sfp inh
CC(C)(C)n1ncc2c(=O)n(Cc3ccc(C(=O)c4ccccc4)cc3)cnc21 | x | x | 1 | x
O=C(OCCF)N1CCN(/[N+]([O-])=N/Oc2ccc([N+](=O)[O-])cc2[N+](=O)[O-])CC1 | x | x | -6 | x
CC(C)(C)n1ncc2c(=O)n(Cc3cccc(OC(F)(F)F)c3)cnc21 | x | x | 17 | x
CC(C)(C)n1ncc2c(=O)n(Cc3cccc(Oc4ccccc4)c3)cnc21 | x | x | 3 | x
CN(C)/[N+]([O-])=N/Oc1cc(F)c([N+](=O)[O-])cc1[N+](=O)[O-] | x | x | 2 | x
CCc1ccc2oc(-c3cc(NC(=O)COc4ccc(C)cc4)ccc3O)nc2c1 | x | -0.5% | x | x
CCc1ccc2c(c1)NC(=O)C2(C)Cc1ccccc1OC (stereo not drawn) | x | 0.2% | x | x
Cc1cc(C)c2cc(C#N)c(NCCNC(=O)c3cccnc3)nc2c1 | x | 4.3% | x | x
COC(=O)[C@@]12C[C@@H](CC(=O)NCCCN3CCCC3=O)C(=O)N(Cc3ccc4c(c3)OCO4)C1=CCC(C)(C)C2 | x | 1.6% | x | x
Fc1ccc(Nc2nnc(-c3ccncc3)s2)cc1Cl | x | -11% | x | x
COc1ccccc1CNc1nc2cc(-c3ccc(OC)c(OC)c3)sc2c(=O)n1C | x | 5.2% | x | x
Cc1c(C(=O)N(C)Cc2ccc(F)cc2)sc(=O)n1Cc1ccccc1C#N | x | -0.4% | x | x
CCc1nc2c(OCc3ccccc3C)cccn2c1N(C)C(=O)c1ccco1 | x | -0.8% | x | x
c1ccc(Nc2nc(-c3ccccc3)c(-c3ccccc3)s2)cc1 | x | 4.1% | x | x
CCCCCCCCCC[n+]1ccc(/C=C/c2ccc(N(C)C)cc2)c2ccccc21 | x | -2.8% | x | x
OC(c1ccc(Cl)c(Cl)c1)c1ncc(-c2ccccc2C(F)(F)F)[nH]1 (stereo not drawn) | x | -1.1% | x | x
C=CCCC(=O)N1C[C@H]2CON(C)[C@H]2C[C@H]1c1ccc(-n2ccnc2)cc1 | x | -0.4% | x | x
COc1ccc(CCN2C(=O)COc3ccccc3C2C(=O)NCc2ccccc2)cc1OC (stereo not drawn) | x | 1.5% | x | x
Nc1ccn([C@@H]2O[C@H](C(=O)N[C@H](COC=O)Cc3ccccc3)[C@@H](O)[C@H]2O)c(=O)n1 | x | 0.6% | x | x
CCOc1ccc(Cl)cc1-c1cc(C(=O)Nc2ccc(F)cc2)[nH]n1 | x | -1.5% | x | x
Cc1ccc(CN2CCC2(C)C(=O)NC2CCc3ccccc32)cc1 (stereo not drawn) | x | 3.0% | x | x
C=CCn1c(C(C)n2c(-c3cnccn3)nc3ccccc32)nc2ccccc21 (stereo not drawn) | x | -8.1% | x | x
CC1(C(=O)NS(=O)(=O)c2ccc(Cl)cc2)CCN1C(=O)C1(c2ccc(Cl)cc2)CCC1 (stereo not drawn) | x | 0.3% | x | x
Cc1ccccc1NC(=O)Nc1nnc([C@@H]2C[C@H](O)[C@@H](CO)O2)s1 | x | 1.5% | x | x
CC1(C(=O)NS(=O)(=O)c2ccccc2)CCN1C(=O)C1(c2ccc(Cl)cc2)CC1 (stereo not drawn) | x | -3.6% | x | x

Some of the entries so far, as tab-separated lines:
SMILES	TRPV1 potentiator	ClpP mod	TRPML1 inh	Sfp inh
Cc1ccccc1NC(=O)Nc1nnc([C@@H]2C[C@H](O)[C@@H](CO)O2)s1	x	1.5%	x	x
CC1(C(=O)NS(=O)(=O)c2ccccc2)CCN1C(=O)C1(c2ccc(Cl)cc2)CC1 (stereo not drawn)	x	-3.6%	x	x

Remaining list, next part:
SMILES | TRPV1 potentiator | ClpP mod | TRPML1 inh | Sfp inh
CS(=O)(=O)c1ccc(Nc2nc(C(N)Cc3ccc(C(F)(F)F)cc3)cs2)cc1 (stereo not drawn) | x | -13% | x | x
Cc1ccc(NC(=O)C2(C)CCN2C(=O)C2(c3ccc(Cl)cc3)CC2)cc1 (stereo not drawn) | x | -0.3% | x | x
Cc1ccccc1Cn1c(C)c(C(=O)NCCC#N)sc1=O | x | 2.8% | x | x
CCCCNC(=O)C[C@@H]1C[C@@]2(C(=O)OC)CCCCC=C2N(CCC2=CCCCC2)C1=O | x | 1.1% | x | x
Cc1cccc(COC[C@H](Cc2ccccc2)N2CCN(C(=O)c3ccc(Cl)c(Cl)c3)CCC2=O)c1 | x | -5.1% | x | x
CCOC(=O)N(C)c1c(CC)nc2c(OCc3cccc(Cl)c3)cccn12 | x | -3.7% | x | x
COCCCNC(=O)c1cc(Cc2ccccc2)sc1N | x | u | x | x
O=C(NCc1ccncc1)[C@@H]1CCCN1C(=O)[C@H]1CCCN1C(=O)c1cccs1 | x | -1.3% | x | x
CCOC(=O)C1(C)CCCN(C(=O)c2ccc(F)cc2Cl)C1 (stereo not drawn) | x | 0.3% | x | x
COc1cc(C=C(C#N)C(=O)c2ccccc2)cc(OC)c1OC | x | -2.5% | x | x
O=C(Cc1ccc(Br)cc1)NO | x | 0.3% | x | x
COc1ccccc1Cc1c(C(C)(C)C)nc2ccc(C)cn12 | x | 5.4% | x | x
COC(=O)Cc1ccc(OC2(C)CCN(Cc3ccccc3OC(F)F)C2)cc1 (stereo not drawn) | x | -4.2% | x | x
COc1cccc2c1C(=O)/C(=C/c1ccc(N(C)C)cc1)C2 | x | -0.7% | x | x
CC1(C(=O)NS(=O)(=O)c2ccccc2Cl)CCN1C(=O)CCc1cccs1 (stereo not drawn) | x | 0.9% | x | x
O=C(NC1CCCCC1)c1cnn2c1NC(=C1CC1)C=C2C(F)F | x | -1.6% | x | x
CC(C)CNc1ncnc2c1ncn2[C@H]1CN(Cc2ccc3c(c2)OCO3)C[C@@H](CO)O1 | x | 1.8% | x | x
COc1ccc(CN2C[C@@H](CO)O[C@@H](n3cnc4c(NCc5ccncc5)ncnc43)C2)cc1 | x | -0.4% | x | x
COc1ccc(NC(=O)c2cc(C3CCCCN3S(=O)(=O)c3c(C)noc3C)on2)c(C)c1 (stereo not drawn) | x | 1.8% | x | x
CC1(C(=O)NCc2ccco2)Cc2c(-c3cccc(C(F)(F)F)c3)ccnc2O1 (stereo not drawn) | x | -2.4% | x | x
COc1ccc(NC(=O)C2(C)Cc3c(-c4ccc(NC(C)=O)cc4)ccnc3O2)cn1 (stereo not drawn) | x | 5.0% | x | x
COc1cc(C)c(NC(C)C(=O)c2c(C)[nH]c3ccccc23)cc1OC (stereo not drawn) | x | 0.2% | x | x
O=C(NCc1ccccc1)c1cc(C2CCCN(C(=O)c3cccs3)C2)on1 (stereo not drawn) | x | -1.8% | x | x
CC1(C(=O)NS(=O)(=O)c2ccc(Cl)s2)CCN1C(=O)Cc1ccc(-c2ccccc2)cc1 (stereo not drawn) | x | -1.5% | x | x
CCCCc1ccc(CC(=O)NO)cc1 | x | -2.2% | x | x
COc1cccc(C(C)(O)c2nc(-c3cccc(F)c3)cs2)c1 (stereo not drawn) | x | -2.9% | x | x
Cc1ccc(S(=O)(=O)N2CCC(c3nc(-c4cccs4)nc4ccccc34)CC2)cc1 | x | -13% | x | x

14 structures out of the list, sorted by formula weight, lowest first.
SMILES | TRPV1 potentiator | ClpP mod | TRPML1 inh | Sfp inh
CCCCc1ccc(CC(=O)NO)cc1 | x | -2.2% | x | x
COCCCNC(=O)c1cc(Cc2ccccc2)sc1N | x | u | x | x
COc1ccccc1Cc1c(C(C)(C)C)nc2ccc(C)cn12 | x | 5.4% | x | x
Cc1ccccc1Cn1c(C)c(C(=O)NCCC#N)sc1=O | x | 2.8% | x | x
COc1cc(C=C(C#N)C(=O)c2ccccc2)cc(OC)c1OC | x | -2.5% | x | x
CCOC(=O)C1(C)CCCN(C(=O)c2ccc(F)cc2Cl)C1 (stereo not drawn) | x | 0.3% | x | x
Cc1ccc(NC(=O)C2(C)CCN2C(=O)C2(c3ccc(Cl)cc3)CC2)cc1 (stereo not drawn) | x | -0.3% | x | x
CCOC(=O)N(C)c1c(CC)nc2c(OCc3cccc(Cl)c3)cccn12 | x | -3.7% | x | x
CC1(C(=O)NCc2ccco2)Cc2c(-c3cccc(C(F)(F)F)c3)ccnc2O1 (stereo not drawn) | x | -2.4% | x | x
COC(=O)Cc1ccc(OC2(C)CCN(Cc3ccccc3OC(F)F)C2)cc1 (stereo not drawn) | x | -4.2% | x | x
CC(C)CNc1ncnc2c1ncn2[C@H]1CN(Cc2ccc3c(c2)OCO3)C[C@@H](CO)O1 | x | 1.8% | x | x
CS(=O)(=O)c1ccc(Nc2nc(C(N)Cc3ccc(C(F)(F)F)cc3)cs2)cc1 (stereo not drawn) | x | -13% | x | x
Cc1ccc(S(=O)(=O)N2CCC(c3nc(-c4cccs4)nc4ccccc34)CC2)cc1 | x | -13% | x | x
COc1ccc(CN2C[C@@H](CO)O[C@@H](n3cnc4c(NCc5ccncc5)ncnc43)C2)cc1 | x | -0.4% | x | x

Not all compounds are listed; the hit share may differ from the screen's.
